TRPV1 potentiator = HTS Assay for Compounds that Act as Potentiators of the Vanilloid Receptor 1 | potentiation, % at 8.33 µM | hit rate 0.02% among 320,000 | TRPV1-expressing cells, Fluo-8 calcium influx, capsaicin EC20 potentiation; host cell line not named in the record; control for the full effect not named in the record; active means potentiation above 80%; inconclusive means 30% to 80%; inactive means below 30%; note: 0% is about no effect
Target sequence (Q8NER1 whole entry, looked up): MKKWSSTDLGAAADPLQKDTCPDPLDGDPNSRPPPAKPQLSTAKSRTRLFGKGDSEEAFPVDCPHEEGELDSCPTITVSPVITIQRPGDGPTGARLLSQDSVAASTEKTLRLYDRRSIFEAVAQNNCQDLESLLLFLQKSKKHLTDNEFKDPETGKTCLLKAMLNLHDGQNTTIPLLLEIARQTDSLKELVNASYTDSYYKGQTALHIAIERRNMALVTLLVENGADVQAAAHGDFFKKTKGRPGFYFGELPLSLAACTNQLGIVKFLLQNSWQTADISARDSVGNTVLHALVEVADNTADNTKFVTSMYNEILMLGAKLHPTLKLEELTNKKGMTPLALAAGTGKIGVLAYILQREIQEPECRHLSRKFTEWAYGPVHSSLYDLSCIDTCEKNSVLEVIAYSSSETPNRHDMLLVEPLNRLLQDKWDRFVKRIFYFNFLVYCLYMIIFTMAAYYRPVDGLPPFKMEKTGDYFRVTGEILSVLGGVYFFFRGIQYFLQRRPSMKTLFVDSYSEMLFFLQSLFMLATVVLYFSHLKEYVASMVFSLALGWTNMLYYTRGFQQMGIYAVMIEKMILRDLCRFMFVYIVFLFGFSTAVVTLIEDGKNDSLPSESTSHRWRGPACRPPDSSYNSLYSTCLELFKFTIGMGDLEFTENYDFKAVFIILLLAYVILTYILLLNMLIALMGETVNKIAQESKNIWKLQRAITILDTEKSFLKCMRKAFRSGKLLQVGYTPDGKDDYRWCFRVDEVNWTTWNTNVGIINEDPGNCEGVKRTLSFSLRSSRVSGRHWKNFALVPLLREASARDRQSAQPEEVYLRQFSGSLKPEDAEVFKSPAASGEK
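Cells expressing TRPV1 were dye-loaded with Fluo-8 and read kinetically: 10 s baseline, 3 min after compound (agonist portion), then 2 min after EC20 capsaicin (allosteric enhancer portion). Calcium-bound dye fluorescence at 480/520 nm.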
ClpP mod = qHTS Assay for Activators of ClpP; AID 651965, 2013; purified B. subtilis ClpP, FRET peptide cleavage, 20 min; hit rate 1.9% among 340,000; Potency, µM (doses to about 57.5 µM), for inactives: top-dose activity change, negative = active; ATP-dependent Clp protease proteolytic subunit (Bacillus subtilis (strain 168)), P80244; active = well fitted falling curve with a large enough effect; inconclusive = small, poorly fitted or top-dose-only effect; inactive = no such curve, though single readings can be large or run the other way; note: potency is the fitted concentration of half-maximal effect; the source files actives as falling curves though it sought activators and does not explain the sign; nearly all actives have a fitted effect of over 65% in size; many hits overshoot -100%
Target sequence (P80244 whole entry, looked up): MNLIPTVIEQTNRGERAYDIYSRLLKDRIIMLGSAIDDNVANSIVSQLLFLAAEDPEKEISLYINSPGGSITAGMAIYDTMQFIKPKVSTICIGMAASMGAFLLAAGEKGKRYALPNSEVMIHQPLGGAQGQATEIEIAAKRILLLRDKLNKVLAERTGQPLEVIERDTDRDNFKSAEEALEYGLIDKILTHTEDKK
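Buffer: 100 mM Tris/HCl pH8, 100 mM KCl, 0.05% low protease BSA, 2.5% glycerol, 0.01% Tween-20. ClpP 10 microg/mL final; 20 min RT; delta FRET normalized to ADEP and DMSO controls.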
PINK1 expr mod = A Quantitative High throughput Screen to Identify Chemical Modulators of PINK1 Expression; Potency, µM (titrated, usually from 76.6 µM), inactives show top-dose activation (PINK1 increase), usual class: activators; AID 624263, 2012; hit rate 0.2% among 410,000; PINK1 immunofluorescence, high-content cytometry, 24 h; active = well fitted activation curve with a large enough effect; inconclusive = small, poorly fitted or top-dose-only effect; inactive = flat fitted curve, though single readings scatter; cell line not stated here;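 note: potency is the fitted concentration of half-maximal effect; % of control where 0% means no effect; nearly all actives have a fitted effect of over 65% in size; a mitochondrial uncoupler was the plate control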
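Compound titrations (5 concentrations, 24 h) on a stable cell line; DMSO and CCCP controls. Endpoint: fixed-cell PINK1 immunofluorescence with mitochondrial, cell and nuclear markers, scanned by microplate cytometer.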
Menin MLL FP FL = qHTS Assay for Inhibitors Targeting the Menin-MLL Interaction in MLL Related Leukemias: Competition With Fluorescein Labeled MLL-derived Peptide; Fluorescence polarization, fluorescein-MLL peptide displacement from menin; FP activity change, % at 61.4 µM; 290,000 tested, under 10 active; AID 1766, 2009; inconclusive = falling polarisation curve, or a change in total fluorescence; inactive = total fluorescence flat and polarisation flat or rising; no compound was filed as active; the % refers to the polarisation; negative = inhibition;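 note: % of control where 0% means no effect; inhibitors lower the polarisation; unlabelled MLL peptide was the positive control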
TRPML1 ag = qHTS for Agonists of the Human Mucolipin Transient Receptor Potential 1 (TRPML1); TRPML1-expressing cells, Ca2+ dye fluorescence, FDSS; host cell line not named in the record; reference of the full effect not given here; Mucolipin-1 (Homo sapiens), Q9GZU1; AID 624414, 2012; activation, % (concentration not given with the values); hit rate 0.12% among 410,000; in the data active = activation above about 50%; inconclusive = about 30% to 50%; inactive = below about 30%; note: 0% is about no effect; the text of the record puts the active cut at 80%
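In this qHTS format, compounds were pin-transferred onto Ca8-dye-loaded TRPML1-DL cells induced with Tet overnight, and intracellular Ca2+ fluorescence was recorded kinetically for 110 s after a 10 s baseline. A subsequent 4uM final 54-4 (EC80) addition followed by a second 110 s read served as the antagonist phase.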
TRPML1 blocker = qHTS for Inhibitors of the Human Mucolipin Transient Receptor Potential 1 (TRPML1); TRPML1-inducible cells, Ca2+ dye fluorescence, FDSS; active compounds read low; inhibition of EC80 agonist-evoked calcium signal; Mucolipin-1 (Homo sapiens), Q9GZU1; hit rate 0.02% among 390,000; activity change, negative = inhibition, % (test concentration not listed); in the data active means activity change below about -50%; inconclusive means about -30% to -50%; inactive means above about -30%;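 note: stimulus is agonist 54-4 at its EC80 concentration; % is set by controls: 0 for no effect and ±100 for the full control effect; compound concentration not given in the record; the text of the record puts the active cut at -80%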
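Calcium fluorescence in TRPML1-DL cells induced overnight with Tet: a 110 s read after compound pin addition, then a 110 s antagonist read after challenge with 54-4 at 4 uM final (EC80).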
Sfp inh = qHTS Assay for Inhibitors of Bacillus subtilis Sfp phosphopantetheinyl transferase (PPTase) | hit rate 3.5% among 310,000 | Potency, µM, for the others: max response, negative = inhibition, actives largely listed as inhibitors | 4'-phosphopantetheinyl transferase ffp (Bacillus subtilis), Q9F4F7 | Biochemical Sfp PPTase activity, qHTS | AID 1490, 2009; active = well fitted inhibition curve with a large enough effect; inconclusive = small, poorly fitted or top-dose-only effect, or another doubt; inactive = no such curve, though single readings can be large or run the other way;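 note: the enzyme is Sfp with the accession as filed and its product quenches rhodamine fluorescence; potency is the fitted concentration of half-maximal effect; 0% = enzyme reaction without inhibitor and -100% = no enzyme wells; top concentration of the series not given in the record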
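After 15 min at room temperature with compound, 15 nM Sfp received 5 uM rhodamine-CoA plus 12.5 uM BHQ-2-ybbR (50 mM Hepes pH 7.6, 10 mM MgCl2). Rate came from the fluorescence difference over 30 min, ex 525/em 598 nm.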
Active calls of the source: *; ? = inconclusive; / = no result given; [ ] = remark or other dose. No enrichment for hits; 4.4% or so of the library scored in one or more.

item	Structure	TRPV1 potentiator	ClpP mod	PINK1 expr mod	Menin MLL FP FL	TRPML1 ag	TRPML1 blocker	Sfp inh
1	COC(=O)c1cn(C(=O)c2cc(C)cc(C)c2)c2ccccc12	?	/	7.3%	1.4	-0.7	-1	10%
2	OC(CN1CCN(c2ccccc2)CC1)c1c[nH]c2ccccc12 (configuration not stated)	1	-1.2%	0.2%	2.3	0.7	-4	11%
3	CCNC(=O)Nc1ccc(OC)cc1OC	3	-1.4%	-0.3%	-2.0	0.3	2	-1%
4	O=C(O)CN1C(=O)/C(=C2\SC(=S)N(C(Cc3ccccc3)C(=O)O)C2=O)c2ccccc21 (configuration not stated)	20	0.9%	0.3%	-0.7	-0.5	2	7%
5	CN(C)C(CNC(=O)c1cc(S(=O)(=O)N(C)Cc2ccccc2)ccc1Cl)c1ccco1 (configuration not stated)	0	-0.8%	-0.6%	/	-0.3	-4	/
6	COc1ccc(/C=C/c2nc(S(=O)(=O)c3ccccc3)c(N(C)C)o2)cc1OC	20	4.3%	-0.3%	/	0.9	34	-6%
7	CCOC(=O)/C=C/C(=O)Nc1ccccc1C(=O)NC1CCCCC1	-12	-0.6%	3.1%	1.2	-0.8	-24	16%
8	Cn1c(=O)oc2cc(S(=O)(=O)CCC(=O)NCc3ccccc3)ccc21	/	-2.2%	1.1%	/	-0.8	-18	/
9	COc1ccc(-c2cccc(NS(=O)(=O)c3cc(C)c(OC)c(C)c3C)c2)nn1	/	-0.8%	0.6%	/	0.7	0	/
10	Cc1cc(Br)ccc1NC(=S)Nc1cccc([N+](=O)[O-])c1	-17	0.3%	40µM*	7.3	0.0	12	?
11	CC1CC(C)CN(S(=O)(=O)c2cccc(C(=O)N3C(=O)c4cccc(N)c4C3=O)c2)C1 (configuration not stated)	2	-1.5%	2.9%	-19	0.5	17	16%
12	Oc1ccc(N=Nc2ccc3ccccc3c2)cc1	0	-0.4%	?	7.3	0.3	14	-8%
13	O=C(CSC1=NCCS1)N1CCc2ccccc21	0	-1.2%	0.5%	1.2	-0.8	-3	8%
14	O=C(O)c1cccc(NC2=C(Cl)C(=O)c3ccccc3C2=O)c1	0	-0.2%	-2.3%	2.9	-0.2	28	25µM*
15	Cc1cc2c3c([nH]c2cc1S(=O)(=O)NCCCOC(C)C)CC(C)(C)CC3=O	-12	-7.2%	0.4%	0.4	-0.3	3	10%
16	CCS(=O)(=O)N1CCCC(C(=O)NCCN2CCC(Cc3ccccc3)CC2)C1 (configuration not stated)	-6	-1.6%	-1.1%	4.2	-0.6	0	2%
17	CC1Sc2ccc(S(=O)(=O)CCC(=O)NCc3ccc(Cl)cc3)cc2NC1=O (configuration not stated)	-1	-2.1%	-1.0%	/	-0.1	-7	0%
18	Nc1nnc(SCC(=O)NCc2ccc3c(c2)OCO3)s1	3	1.6%	1.1%	1.3	-0.4	3	9%
19	CCOC(=O)CSc1nnc(-c2ccco2)n1-c1ccc(C)cc1	-15	-1.4%	-1.1%	4.6	-1.4	-4	-6%
20	Cc1ccc(S(=O)(=O)N2CC=C(c3ccc(F)cc3)CC2)cc1	-1	-1.2%	2.2%	2.7	2.4	38	-9%
21	CCCCN(C(=O)c1cc(S(=O)(=O)N2CCCCC2)ccc1Cl)c1c(N)n(CC(C)C)c(=O)[nH]c1=O	/	-14%	-0.8%	/	-0.9	-9	/
22	CSc1nnc(-c2ccccc2Cl)n1N	-2	1.3%	0.1%	2.6	-0.9	-6	-8%
23	Cc1ccc(/C=C/C(=O)NCc2ccccn2)o1	2	-1.9%	9.4%	3.7	0.8	18	-60%
24	O=C(Cc1ccc(Br)cc1)NCCc1ccccc1	/	/	0.5%	/	2.4	18	/
25	CCOC(=O)c1sc(NC(=O)CSc2n[nH]c(-c3ccc(Cl)cc3Cl)n2)c(C#N)c1C	?	6.4%	?	12	-0.3	1	11%
26	COc1cc2[nH]c(=S)nc(NCC3CCCO3)c2cc1OC (configuration not stated)	-7	-4.3%	7.1%	-1.5	0.6	0	-9%
27	O=C(CC1Nc2ccccc2NC1=O)NCc1cccnc1 (configuration not stated)	-9	?	-1.1%	2.2	0.6	78	23%
28	CC(=O)n1cc(C=O)c2ccccc21	/	-1.1%	2.0%	/	-0.5	/	/
29	Cn1c(CNC(=O)c2ccco2)nnc1SCCOc1ccccc1	24	2.4%	4.0%	2.9	-0.7	-2	30%[activator]
30	Cc1ccc(SCC(=O)NN2C(=O)c3ccccc3C2=O)cc1	7	/	0.2%	1.2	0.8	7	1%
31	COC(=O)C1=C(CCc2ccccc2)NC(=O)NC1c1ccc(C#N)cc1 (configuration not stated)	/	-2.4%	0.2%	/	-0.7	-2	/
32	Cc1nn(C)cc1CN(C)Cc1ccc(OCC(O)CN2CCCCC2)cc1 (configuration not stated)	0	-2.6%	1.7%	-0.1	/	/	8%
33	CN(/C=C/C(=O)C(F)(F)C(F)(F)F)Cc1ccccc1	3	0.4%	/	2.1	-0.3	12	16%
34	O=C1C(c2ccccc2)CN1Cc1ccccc1 (configuration not stated)	/	1.9%	-0.2%	/	-1.0	/	/
35	Cc1noc(C)c1C(=O)Nc1ccccc1N1CCOCC1	-4	-0.3%	0.0%	/	-0.7	-6	/
36	Cc1ccc(Cn2cccc(-c3nc4ccccc4s3)c2=O)cc1	17	28%	-1.9%	3.0	5.0	28	-29%
37	O=C(CSc1ccc2c(c1)OCCO2)Nc1ccc(Br)cn1	22	-0.2%	2.6%	/	-0.5	-8	1%
38	O=C(Nc1nc2ccccc2n1CCOc1ccccc1Cl)c1ccccc1	/	-4.4%	2.6%	/	1.9	0	/
39	CCOC(=O)c1cc2occc2n1Cc1c(F)cccc1Cl	3	-1.9%	1.3%	4.5	0.2	10	-18%
40	O=C(c1ccc(F)cc1)[C@@H]1[C@@H](C(=O)c2ccccc2)[C@@]2(C(=O)Nc3ccccc32)[C@H]2c3ccccc3C=CN12	16	/	/	?	/	/	2%
41	O=C(CSc1oc(-c2ccccc2)nc1S(=O)(=O)c1ccc(F)cc1)NCC1CCCO1 (configuration not stated)	-32	1.8%	8.9%	1.9	3.1	4	-18%
42	O=C(O)CC(CN1C(=O)c2ccccc2C1=O)c1ccccc1 (configuration not stated)	/	/	0.1%	/	1.8	5	/
43	CC(C)(C)OC(=O)NC(CC(=O)OCc1ccccc1)C(=O)O (configuration not stated)	3	-6.7%	0.9%	7.3	0.4	30	16%
44	Cc1ccc(S(=O)(=O)NNC(=O)c2ccoc2C)cc1	-8	-2.0%	-0.5%	-1.2	0.7	7	14%
45	CN(c1ccc(C(=O)NCc2ccc3c(c2)OCO3)cc1)S(C)(=O)=O	-8	0.4%	-4.4%[38.3 µM]	2.4	-0.6	-5	-1%
46	COc1ccc(/C=N/Nc2ccccn2)c(OC)c1OC	-3	/	0.5%	2.7	0.1	-14	?
47	O=C(NC1CC1)c1sc2cc(Cl)ccc2c1Cl	-14	0.7%	-1.8%	/	0.2	1	/
48	Cn1c(CN2CCOCC2)c(C#N)c2ccccc21	-18	-12%	-4.2%[38.3 µM]	7.1	-0.4	-5	-17%

Screen by screen, quoted from above:
TRPV1 potentiator for nos. 37–44: 22, /, 3, 16, -32, /, 3, -8
TRPML1 ag for nos. 37–44: -0.5, 1.9, 0.2, /, 3.1, 1.8, 0.4, 0.7
PINK1 expr mod for nos. 37–44: 2.6%, 2.6%, 1.3%, /, 8.9%, 0.1%, 0.9%, -0.5%

Other results.
item	Structure	TRPV1 potentiator	ClpP mod	PINK1 expr mod	Menin MLL FP FL	TRPML1 ag	TRPML1 blocker	Sfp inh
49	C(=N\n1cnnc1SCc1ccccc1)/c1ccco1	9	-9.8%	0.6%	5.1	-0.3	-18	3%
50	Cc1onc(-c2ccccc2)c1C(=O)N(C)CC(=O)Nc1ccc(F)c(F)c1F	/	0.1%	2.2%	/	-0.8	-1	/
51	C[C@H](NC(N)=O)C(=O)Nc1ccc(N2CCOCC2)c(S(=O)(=O)Nc2ccc(Cl)cc2)c1	1	1.8%	3.6%	/	0.9	-6	/
52	O=C(NNC1=NS(=O)(=O)c2ccccc21)c1ccc([N+](=O)[O-])cc1	-5	/	0.1%	-5.6	-0.4	-11	-22%
53	Cc1nc2nc(NCc3cccc(Cl)c3)[nH]n2c(=O)c1Cc1ccccc1	/	-2.0%	-1.5%	/	-0.9	-11	/
54	CCOC(=O)C1=C(CN2CCN(C(=O)OCC)CC2)NC(=O)NC1c1ccc2c(c1)OCO2 (configuration not stated)	-4	/	-0.6%	0.6	1.5	13	0%
55	CCCCN(C)C(=O)c1sc(=O)n(Cc2c(C)noc2C)c1C	/	1.6%	1.9%	/	-0.6	/	/
56	Cc1cc(C)c2nc(-c3cccnc3)cc(C(=O)Nc3ccc(S(=O)(=O)Nc4onc(C)c4C)cc3)c2c1	1	/	-1.7%	-2.5	0.8	8	20%
57	O=C(CN1CCOCC1)Nc1ccc(NC(=O)CN2CCOCC2)c(Cl)c1	23	-6.2%	-1.2%	1.8	-0.3	-12	10%
58	CC(C)c1ccc(NC2CCCN(C(=O)c3cnsn3)C2)cc1 (configuration not stated)	-15	-0.9%	1.3%	/	0.8	4	10%
59	CCCN1CCN(C(=O)Cn2nc(CC)n3c(cc4sccc43)c2=O)CC1	14	-14%	-3.8%	1.0	1.0	-1	15%
60	COc1cccc(C2=NOC(C(=O)N3CCN(C(=O)c4ccco4)CC3)C2)c1 (configuration not stated)	10	-0.1%	1.8%	-5.4	1.2	7	-2%
61	O=C(Nc1ccc(C(=O)O)cc1)/C(=C/c1ccc2c(c1)OCO2)NC(=O)c1cccc(Br)c1	5	/	-2.3%	-1.0	0.2	-4	24%

Assay outcomes deposited in PubChem BioAssay by National Center for Advancing Translational Sciences (NCATS).
